Assay outcomes from PubChem.
RecA intein inh: Mtb RecA intein splicing inhibition; P9WHJ3; cell-free RecA intein splicing, fluorescence; inhibition, %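 (about 9 µM by stock and volumes)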; actives 0.75% (n = 290,000); AID 2221; in the data active = inhibition above about 30%; inconclusive = no clear call, values can overlap the other calls;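 note: 0% = vehicle wells and 100% = reference inhibitor control wells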
Target sequence (P9WHJ3 whole entry, looked up): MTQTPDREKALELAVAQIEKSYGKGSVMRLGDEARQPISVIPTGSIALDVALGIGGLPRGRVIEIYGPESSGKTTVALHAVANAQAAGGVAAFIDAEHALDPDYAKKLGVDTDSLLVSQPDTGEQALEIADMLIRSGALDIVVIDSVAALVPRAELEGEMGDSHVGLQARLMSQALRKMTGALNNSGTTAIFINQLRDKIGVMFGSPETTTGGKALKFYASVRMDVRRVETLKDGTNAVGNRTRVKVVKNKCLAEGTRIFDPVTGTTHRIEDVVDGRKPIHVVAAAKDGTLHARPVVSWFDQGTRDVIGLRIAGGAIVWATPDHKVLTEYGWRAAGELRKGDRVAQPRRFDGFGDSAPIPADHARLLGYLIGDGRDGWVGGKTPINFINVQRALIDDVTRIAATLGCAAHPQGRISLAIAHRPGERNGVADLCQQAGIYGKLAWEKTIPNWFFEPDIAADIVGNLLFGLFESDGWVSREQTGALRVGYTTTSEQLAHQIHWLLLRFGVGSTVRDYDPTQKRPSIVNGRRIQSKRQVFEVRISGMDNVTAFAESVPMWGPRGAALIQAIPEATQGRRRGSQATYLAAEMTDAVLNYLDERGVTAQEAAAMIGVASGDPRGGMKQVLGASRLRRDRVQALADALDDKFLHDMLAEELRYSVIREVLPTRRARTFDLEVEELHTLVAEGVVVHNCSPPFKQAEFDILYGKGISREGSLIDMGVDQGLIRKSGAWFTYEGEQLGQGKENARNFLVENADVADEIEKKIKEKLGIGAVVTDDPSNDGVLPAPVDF
YopH inh: YopH (Yersinia) phosphatase inhibition. fluorescence Ex485/Em525. inhibition, %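 (about 10 µM by stock and volumes)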. actives 0.16% (n = 140,000);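 active = inhibition of 50% or more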;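 note: controls were vehicle for no effect and minimum signal wells for full effect; inactives centre near -20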
Arbovirus inh: arbovirus infection inhibition | arbovirus infection cell-based antiviral screen | inhibition, % at 10 µM | actives 0.37% (n = 200,000);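 active = inhibition from about 30%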;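 note: bluetongue infection of BSR cells; cell survival read as ATP light after 72 h; 0% = infected wells without compound and 100% = uninfected wells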
Mtb H37Rv: M. tuberculosis H37Rv growth inhibitors, H37Rv strain (AID 1626) | M. tuberculosis H37Rv growth inhibition; higher % means a stronger effect | inhibition, % at 10 µM, or IC50 in µM where a hit was titrated | actives 0.95% (n = 220,000);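 active = confirmed in a dose series; inconclusive = inhibition above 80% but not taken into the dose series; inactive = below 80% or under 30% at every dose of the series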;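 note: bacteria incubated seven days before Alamar blue readout; 0% = bacteria only wells and 100% = bacteria with antibiotic wells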
Mtb bLac sens: beta-lactam sensitization of Mtb H37Rv; M. tuberculosis H37Rv growth with meropenem, percent inhibition; hits of this screen are not shown here; inhibition, % at 25 µM; actives 0.27% (n = 330,000);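 active = about 74% or more and at least 40 points above the plate without the antibiotic, then above 30% in a dose series; inconclusive = first-round hits that could not be retested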;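 note: growth measured after seven days incubation then overnight dye step; 0% = bacteria only wells and 100% = bacteria with antibiotic; twin plates without the antibiotic show which effects depend on it; some results filed as inactive read as strong as hits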
Arbovirus inh repeat: also measured in Arbovirus inh; calls as there; inhibition, %; measured here: 10K subset replicate screen; many hits read low in the repeat;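 first of two repeat runs on a subset; 0% = infected and 100% = uninfected wells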
* marks the source's active call; other numbers are inactive results; u = inconclusive; x = not tested or not shown. A portion of the library; the hit share may differ from the screen's.

Preview, 7 compounds:
SMILES	RecA intein inh	YopH inh	Arbovirus inh	Mtb H37Rv	Mtb bLac sens	others
CCN(CC)S(=O)(=O)c1cc(C(=O)OCC(=O)Nc2c(F)cccc2F)ccc1F	0.8	-12	7	10%	2
Cc1ccc(N=C2NC(=O)/C(=C/C=C/c3ccco3)S2)cc1	9.6	-21	25	8%	13
Nc1nncn1C(=O)c1ccc(Cl)cc1Cl	10	x	-2	-4%	-4
O=C(NCCC1=CCCCC1)C1CCN(Cc2cnn(-c3ccccc3)c2-n2cccc2)CC1	3.5	-26	-45	0%	94
CC12CCC(C(=O)Nc3cccc(Cl)c3Cl)([C@H](Br)C1=O)C2(C)C (some centres undefined)	0.4	x	x	x	-6
O=C(Nc1cccnc1)c1ccccc1Cl	-1.0	x	x	x	-7
COc1cc(C(=O)NC2CCN(CC(=O)NC3CCCCC3C)CC2)cc(OC)c1OC (centres undefined)	0.8	x	x	x	0

Results, repeating the preview:
SMILES	RecA intein inh	YopH inh	Arbovirus inh	Mtb H37Rv	Mtb bLac sens	others
CCN(CC)S(=O)(=O)c1cc(C(=O)OCC(=O)Nc2c(F)cccc2F)ccc1F	0.8	-12	7	10%	2
Cc1ccc(N=C2NC(=O)/C(=C/C=C/c3ccco3)S2)cc1	9.6	-21	25	8%	13
Nc1nncn1C(=O)c1ccc(Cl)cc1Cl	10	x	-2	-4%	-4
O=C(NCCC1=CCCCC1)C1CCN(Cc2cnn(-c3ccccc3)c2-n2cccc2)CC1	3.5	-26	-45	0%	94
CC12CCC(C(=O)Nc3cccc(Cl)c3Cl)([C@H](Br)C1=O)C2(C)C (some centres undefined)	0.4	x	x	x	-6
O=C(Nc1cccnc1)c1ccccc1Cl	-1.0	x	x	x	-7
COc1cc(C(=O)NC2CCN(CC(=O)NC3CCCCC3C)CC2)cc(OC)c1OC (centres undefined)	0.8	x	x	x	0
O=C(N/N=C/c1c(O)ccc2ccccc12)c1ccc(CO)nc1	-33	x	x	x	-3
CCc1nnc(NC(=O)CCS(=O)(=O)c2ccc(C)cc2)s1	-4.9	x	x	x	11
CN(C)c1ccc(NC(=O)CSc2nc3ccccc3c(=O)n2C2CCCCC2)cc1	5.6	-35	8	-1%	-2
CCOCC(O)CS(=O)Cc1ccccc1 (centres undefined)	-9.7	-1	2	-1%	-12
CN(C)S(=O)(=O)c1cccc(NC(=O)C2Cc3ccccc3CN2C(=O)c2ccco2)c1 (centres undefined)	6.1	x	x	x	-11
Cc1nc(Nc2cccc(F)c2)c2oc3ccccc3c2n1	3.6	x	x	x	22
COc1ccc(C)cc1NC(=O)c1sc2ncn(CC(=O)N3CCCCC3)c(=O)c2c1C	0.9	x	x	x	0
CCN1CCN(c2nc3ccccc3s2)CC1	-0.2	-39	-2	1%	1
COc1cc(NC(=S)NC(=O)c2ccc(F)cc2)ccc1NC(=O)c1ccco1	0.1	-28	-8	7%	6
CS(=O)(=O)N(CCc1ccccc1)CC(=O)N1CCN(c2ccccc2F)CC1	-3.0	-174	11	-3%	-7
O=C(Oc1ccccc1N1CCOCC1)c1sccc1Br	-3.0	x	x	-1%	-1
OCCNc1nc(Nc2ccccc2C(F)(F)F)nc(N2CCCC2)n1	-0.2	x	x	-2%	15
CCC(Oc1ccc(F)cc1)C(=O)N1CCCCCCC1 (centres undefined)	1.3	x	x	x	9
Cc1ccc(-c2csc(C3=C(O)CN(NC(=O)c4ccco4)C3=N)n2)cc1	-1.4	x	x	x	-5
COc1ccc(C(=O)CC(=O)C(=O)NCCc2cccc(C)c2)cc1	7.1	-41	6	-5%	2
COc1cc2c(cc1NC(=O)c1cncc(Br)c1)oc1ccccc12	x	-9	-4	6%	-5
Cc1c(C#N)c(NC(=O)CCl)n(Cc2ccc(F)cc2)c1C	56*	x	-9	-3%	4
CCOC(=O)C1=C(C)N(c2ccccc2)C(=O)/C1=C\c1cccs1	-4.5	-15	-10	-1%	-5
CCN(CC(=O)Nc1c(F)cccc1F)C(=O)Cc1csc(-c2ccc(OC)c(OC)c2)n1	1.0	x	x	x	-2
O=C(CSc1ncn[nH]1)N/N=C/c1ccc(F)cc1	-0.6	x	x	x	2
CN(C(=O)c1ccno1)c1nnc(-c2cccnc2)s1	2.3	-18	3	2%	3
COc1ccc(C2C([N+](=O)[O-])=C(C)N(C)C(=O)N2C)cc1OC (centres undefined)	-1.4	x	-9	-1%	5
O=S(=O)(NCCCc1ccccc1)c1ccc(Cl)cc1	3.3	-27	8	18%	1
CCOc1ccc(N(CC(=O)NCc2ccccc2)C(=O)Cn2nnc(-c3ccc(C)o3)n2)cc1	0.9	x	x	x	1
CCc1noc(C)c1C(=O)Nc1cc(Cl)ccc1N1CCOCC1	1.4	x	x	x	3
O=C(CSc1nc(C(F)(F)F)cc(=O)[nH]1)Nc1ccc2c(c1)OCCO2	-0.3	x	x	x	-3
CCCC(=O)NNc1cc(=O)c2c(=O)n(C)c(=O)n(C)c2[nH]1	-11	-2	-5	-11%	2
CCCn1c(SCC(=O)Nc2ccccc2N2CCCCC2)nc2c1c(=O)n(C)c(=O)n2C	-0.9	-33	-6	-7%	0
CCOC(=O)C1(Cc2ccccc2)CCN(Cc2csc(C(C)=O)c2)CC1	-0.7	x	-10	6%	-6
CCCOc1ccc(C(=O)NNC(=S)NC(=O)c2cc(-c3ccc(Cl)cc3)nc3ccccc23)cc1	-0.2	-44	-10	u	97
Nc1c(S(=O)(=O)c2cccs2)c2nc3ccccc3nc2n1Cc1ccccc1	-2.0	-4	-1	6%	-1
Cc1ccc2nc(NC(=O)C3CCCN(S(=O)(=O)c4cnc[nH]4)C3)sc2c1 (centres undefined)	0.5	-10	59*	-5%	-3
Cc1ccc(N(CN2C(=O)C3C4CCC(C4)C3C2=O)C(=O)c2ccco2)cc1 (centres undefined)	2.0	x	x	-13%	-8
Cc1ccccc1NC(=O)Cn1nc(-c2ccccc2)nc1-c1ccccc1	0.3	-47	2	-2%	-8
CCN(CC(=O)NCc1ccc(Cl)cc1)C(=O)/C=C/c1cc(OC)c(OC)c(OC)c1	-2.9	x	x	x	3
O=C(CSc1ccc(F)cc1)NC(=O)NCc1ccccc1	-1.9	x	9	5%	0
C/C(=C/C=N/Nc1nc(N2CCCCC2)nc(N2CCCCC2)n1)c1ccccc1	3.8	-29	-21	11%	96
O=C(O)CNC(=S)N(Cc1ccccc1Cl)C1CCCC1	-2.1	x	3	-5%	-3
c1ccc(-c2csc(N3CCCCCC3)n2)cc1	4.9	-23	9	35%	5
Cc1cc2c3c([nH]c2cc1S(=O)(=O)N1CCC2(CC1)OCCO2)CC(C)(C)CC3=O	0.5	x	x	x	4
O=C(O)CNC(=O)c1ccc(OC(F)F)cc1	-1.0	-24	18	-3%	3
Cc1ccccc1OCC(=O)Nc1ccc2c(c1)Cc1ccccc1-2	-0.1	-21	-2	1%	3
Cc1nc2ccccc2n1C1CCN(Cc2nnnn2CCc2ccccc2)CC1	2.3	-54	5	-8%	-4
CC1(C)CC(NC(=O)c2cc(S(=O)(=O)N3CCOCC3)c(Cl)cc2Cl)CC(C)(C)N1	-5.6	x	x	x	5
O=C(c1cccs1)N1CCN(C23CC4CC(CC(C4)C2)C3)CC1	0.5	x	x	x	3
Cn1c(-c2ccccc2)cnc1SCC(=O)NCc1ccco1	8.2	-27	-1	-5%	13
CC(=O)c1ccc(NC(=O)/C(=C\c2ccccc2)NC(=O)/C=C/c2ccccc2)cc1	3.6	-36	1	6%	1
COc1cc(S(=O)(=O)Nc2ncn[nH]2)ccc1Cl	-4.0	x	x	x	3
CCOC(=O)N1CCN(C(=O)c2c[nH]c3ccc(S(=O)(=O)N(C)c4ccc(OCC)cc4)cc3c2=O)CC1	-0.4	x	x	x	-15
Cc1ccc(CC(=O)NC(C)CCc2ccccc2)cc1 (centres undefined)	2.0	-12	10	-5%	-9
CCN(CC)c1nc(Nc2ccccc2)nc(Oc2ccc(C(=O)OC)cc2)n1	-0.9	2	-1	1%	-2
Cc1ccc(S(=O)(=O)Oc2ccc(/C=N/NC(=O)c3cccnc3)cc2)cc1	-2.5	x	-8	-3%	-1
O=C(CN1CCc2ccccc2C1)Nc1cccc(S(=O)(=O)N2CCCC2)c1	2.7	x	12	1%	-3
(next part)
SMILES	RecA intein inh	YopH inh	Arbovirus inh	Mtb H37Rv	Mtb bLac sens	others
COc1cccc(-c2nnc(SCC(=O)N3CCCc4ccccc43)o2)c1	x	-29	6	10%	4
CCCCNC(=O)C1c2cc(OC)c(OC)cc2C(=O)N(C)C1c1cccs1 (centres undefined)	1.7	x	5	-7%	7
COc1ccc(NC(=O)C(c2ccccc2)N(C)C(=O)CNC(C)=O)cc1 (centres undefined)	x	2	7	-13%	-3
O=C(CSc1ccc2ccccc2n1)NCc1ccc2c(c1)OCO2	-2.6	x	11	6%	1
CCc1ccccc1Nc1nc(N)nc(CSCC(=O)c2cc(C)n(C)c2C)n1	x	-19	4	11%	-9
O=C(Nc1nnc(SCC(=O)N2CCCc3ccccc32)s1)c1cccc2ccccc12	-0.7	-29	15	3%	-5
CN1CCN(S(=O)(=O)c2ccc(N3CCN(S(=O)(=O)/C=C/c4ccccc4)CC3)nc2)CC1	1.9	-34	-11	-8%	4
COC(=O)c1cccc(NC(=O)c2cc3sccc3n2C)c1	-2.6	-38	-3	2%	6
c1cnc(NCCNc2ncccn2)nc1	-3.7	-11	-1	-6%	6
CCOC(=O)Cc1csc(NC(=O)c2ccc(S(=O)(=O)N3CCOCC3)cc2)n1	1.3	x	15	3%	-3
COc1ccc2c(c1)c(C(O)CN1CCN(Cc3ccc4c(c3)OCO4)CC1)c(C)n2C (centres undefined)	-0.7	-6	-2	-5%	5
CCc1ccccc1N(CC)C(=O)CCc1nc(-c2ccc(C)cc2)no1	18	-42	-1	11%	-1
CN1CCN(C(=O)/C=C/c2ccc(Cl)c(Cl)c2)CC1	-4.7	x	x	x	-6
CCn1c(SCC(=O)NCCc2ccccc2)nnc1-c1ccco1	0.0	-35	1	-3%	-10
Cc1noc(C)c1CSc1nc2ccccc2s1	6.7	-14	-3	1%	13
O=C(NC1CCCCC1)Nn1c(-c2ccccc2)nc2ccccc2c1=O	-6.3	-30	-1	-8%	2
COc1cc(CC(=O)NC2CCCc3ccccc32)cc(OC)c1OC (centres undefined)	-0.7	x	x	x	-1
CCOC(=O)c1c(NC(N)=O)sc(C)c1C	-4.1	-25	-4	-15%	-1
c1ccc(-n2ncc3cccnc32)cc1	1.2	x	x	-9%	5
O=C(O)c1ccc(NS(=O)(=O)c2ccc3c(c2)C2C=CCC2C(c2ccccc2F)N3)cc1 (centres undefined)	x	x	14	3%	x
Cc1nnc2ccc(N3CCN(C(=O)c4ccccc4)CC3)nn12	6.1	14	7	0%	1	Arbovirus inh repeat=-2
COC(=O)c1ccc(N2CCN(C(C)=O)CC2)c(NC(=O)c2cccnc2)c1	-1.9	x	5	-6%	12
O=c1c2ccccc2nc(CN2CCOCC2)n1-c1ccccc1F	0.8	-20	-3	-8%	2
CC1CCN(S(=O)(=O)c2ccc(NC(=O)CN3CCOCC3)cc2)CC1	0.1	0	2	-1%	-3
O=C(Nc1ccccc1-c1nc2ccccc2[nH]1)c1ccc(N2C(=O)CCC2=O)cc1	3.2	x	-7	-1%	-5
O=C(CN1CCCCCC1)N/N=C/c1cccc(Cl)c1	-2.0	-17	-3	1%	0
CC(=O)Nc1ccc(-n2nnnc2SCC(=O)N2CCN(C(=O)c3ccco3)CC2)cc1	-1.1	-16	1	-1%	2
S=C(NCCc1ccncc1)Nc1cccc2ccccc12	0.9	x	-1	4%	0
Cn1c(SCc2ccccc2)nc(N)c(N=O)c1=O	-0.6	x	x	x	99
COC(=O)C1=C(C(=O)OC)[C@@H]2Nc3ccccc3[C@@]23C[C@@H](C(=O)OC)N(C(=O)C2CCC2)C3=N1	1.3	x	x	4%	10
CCn1c(SCC(=O)NNC(=O)c2ccc(C)cc2)nnc1-c1ccco1	7.6	x	-2	-3%	-6
CCN(CC(=O)NCc1cccs1)C(=O)c1ccc(OC)c(OC)c1	-2.3	x	x	x	-9
OCC[C@@H]1C[C@@H](O)[C@H](O)[C@]2(CCc3ccccc3CO2)O1	-6.6	x	x	x	-7
CCOC(=O)c1cc2occc2n1CC(=O)NC1CCC(C)CC1 (centres undefined)	0.2	-38	2	-7%	6
Cc1nc2sc(C(c3ccco3)N3CCN(c4ccccc4F)CC3)c(O)n2n1 (centres undefined)	x	-24	9	2%	-4
S=C(NCc1ccco1)NCc1ccccc1Cl	4.9	x	x	x	7
Cn1c(C(F)(F)F)nc2c(=O)oc3ccccc3c21	-1.1	-9	0	13%	86
